Mtb H37Rv: Mycobacterium tuberculosis H37Rv growth inhibition, cell based, confirmatory dose response (AID 1949) | M. tuberculosis H37Rv growth inhibition | most inactive calls were filed without a number and no value below 0 was filed | inhibition, % at 10 µg/mL, or IC50 in µg/mL where a hit was titrated | hit rate 1.6% among 100,000;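 active = confirmed in a dose series; inconclusive = about 50% or more but not retested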;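 note: bacteria grown 7 days with compound before Alamar blue readout; 0% = untreated bacteria and 100% = reference antibiotic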
Active calls of the source: *; i = inactive; ? = inconclusive. Some of the compounds tested; the hit share may differ from the screen's.

SMILES	Mtb H37Rv
CCOc1ccc(OCC)c(S(=O)(=O)N2CCN(Cc3ccccc3)CC2)c1	i
O=C(c1cn(CCCOc2ccccc2)c2ccccc12)C1CC1	i
Cc1cc(CSc2ccccc2)ccc1NC(=O)CN1C(=O)c2cccc3cccc1c23	2%
O=C(Nc1ccc(Cl)cc1C(F)(F)F)c1ccc([N+](=O)[O-])cc1	i
Cc1nn(Cc2ccc(Cl)c(Cl)c2)c(C)c1NC(=S)NC1CCCC1	46%
CCn1c(COc2ccccc2C(N)=O)nc2ccccc21	0%
CC1(C)CC(=O)C2=C(C1)OC(=O)C2(Nc1ccccc1)C(F)(F)F (centres undefined)	0%
Cc1c(Cc2ccccc2)c(=O)oc2cc(OC(=O)C3CCCCC3)ccc12	i
CCOc1ccc(/C=C(/C#N)c2ccc(C#N)cc2)cc1OC	i
CCOc1ccc(C(=O)Nc2ccc(Cl)cc2C(=O)c2ccccc2)cc1[N+](=O)[O-]	i
Cc1nnc(SCc2ccc(C(=O)c3ccc(F)cc3)cc2)[nH]c1=O	i
O=C(Nc1ccccc1)OCCOc1ccccc1Cl	2%
O=C(CSc1nnc(-c2ccccc2)c(-c2ccccc2)n1)NC1CC2CCC1C2 (centres undefined)	i
Cc1ccc2nc3c(cc2c1)c(C)nn3-c1ccccc1	i
COc1ccccc1CNC(=O)c1sc2cc(C)ccc2c1Cl	6%
CCc1nc2ccccc2n1CC1CC1(Cl)Cl (centres undefined)	i
CCN(CC)S(=O)(=O)c1cccc(NC(=O)CC23CC4CC(CC(C4)C2)C3)c1	i
O=C(N1CCN=C1c1ccccc1)N1c2ccccc2Sc2ccccc21	i
C=CCN1C(=O)C(c2c[nH]c3ccccc23)(c2c[nH]c3ccccc23)c2ccccc21	i
COc1ccc(-c2csc(-c3ccccc3)n2)cc1F	31%
C=CCn1c(CNC(=O)c2ccccc2F)nnc1SCC(=O)NC(C)c1ccccc1 (centres undefined)	i
CCC(=O)Nc1ccc(S(=O)(=O)N2CCCCCC2)cc1	i
CS(=O)(=O)CCC(C(=O)OCc1ccc(Br)cc1)N1C(=O)c2ccccc2C1=O (centres undefined)	i
O=C(Oc1ccc(C(=S)N2CCOCC2)cc1Cl)c1ccccc1Br	i
Cc1cc(Cl)c(OCCN2CCC(C)CC2)c(Br)c1	2%
Cc1ccc(C(=O)Nc2cccc(NC(=O)c3ccccc3C)c2)cc1Cl	i
CCOc1c(C=O)cc(Cl)cc1OC	i
Cc1cc(NC(=O)c2cccc(Cl)c2Cl)ccc1Br	?
Cc1cccc(NC(=O)C(C)NS(=O)(=O)c2ccccc2)c1 (centres undefined)	i
O=[N+]([O-])c1cc(Cl)ccc1-c1nc(-c2ccccn2)no1	2%
CCCOc1ccc(Oc2nc(N(C)C)nc(N(C)C)n2)nn1	i
O=C(NNC(=S)NCCc1ccccc1)c1cc2c(s1)CCCCC2	4%
O=C(CN(Cc1ccc(F)cc1)S(=O)(=O)c1ccccc1)NCc1ccco1	1%
Nc1ccccc1-c1ccccc1NC(=O)C(=O)O	1%
Cc1ccc(OCC(=O)Nc2ccc(S(=O)(=O)N(C)C)cc2)c(Br)c1	1%
CC(=O)N1CCN(c2ccc(NCc3ccc(Cl)cc3)cc2)CC1	i
COc1ccc(OC)c(S(=O)(=O)N2CCC(C(=O)Nc3cccc([N+](=O)[O-])c3)CC2)c1	1%
COC(=O)c1ccccc1NC(=O)c1ccc(COc2ccccc2)o1	0%
CCc1cc2c3c(c1)C1(C(=O)N3C(C)(C)C=C2C)C(C#N)=C(N)OC2=C1C(=O)CC(C)(C)C2 (centres undefined)	11%
Cc1ccc(-c2nn(CCC#N)cc2CO)cc1	i
COc1ccc(S(=O)(=O)Nc2ccc(Cl)cc2)cc1Br	i
CCOC(=O)Cc1cc(=O)c2c(=O)n(-c3ccccc3)[nH]c2[nH]1	0%
O=C(Nc1ccc2ccccc2c1)Oc1ccccc1	i
COc1cccc(OC)c1C(=O)N1CCN(c2ccccc2)CC1	i
N#Cc1cn(CC(=O)N2CCCc3ccccc32)c2ccccc12	i
CCN1C(=O)C2(SC(NC(C)=O)=NN2C(C)=O)c2cc(Br)ccc21 (centres undefined)	0%
CCNc1nc(OC)nc(Oc2ccc(C(=O)OC)cc2)n1	i
C=CCn1c(SCC(=O)Nc2cc(C)c(C)cc2Br)nnc1-c1ccccc1O	i
Cc1sc2ncnc(N3CCN(S(=O)(=O)c4ccc(Br)cc4)CC3)c2c1C	14%
CSc1nc(N)nc(SCCS(=O)(=O)c2ccc(Cl)cc2)c1C#N	i
O=C(Nc1ccccc1C(=O)Nc1ccc(Cl)cc1)c1cccnc1	i
Cc1ccc(S(=O)(=O)Cc2ccc(C(=O)Nc3cccc4cccnc34)cc2)cc1	i
O=C(Nc1ccccn1)c1cc(-n2cnnc2)ccc1Cl	i
CN(Cc1ccccc1)C1=NS(=O)(=O)c2ccccc21	2%
C=CCOc1c(Cl)cc(Cl)cc1C=O	i
Cc1ccc(-c2ccc(C(=S)N3CCN(c4ccccc4)CC3)o2)cc1	i
COc1ccc(-c2cc(C(F)F)n3ncc(C(=O)Nc4ccc5c(c4)OCCO5)c3n2)cc1	i
CCc1ccc(C(=O)NC(CCSC)C(=O)O)cc1 (centres undefined)	i
CCOC(=O)c1cc(-c2ccccc2)sc1NC(=S)Nc1ccsc1C(=O)OC	i
Cc1ccc(Cn2cc(Br)c([N+](=O)[O-])n2)cc1	5%

(more compounds)
SMILES	Mtb H37Rv
COc1ccc(Cn2nc(C)c([N+](=O)[O-])c2C)cc1OC	i
COC(=O)c1sc(NC(=O)COc2ccc(Cl)cc2)nc1C	i
Cc1ccc(S(=O)(=O)N(CC(=O)NCc2ccco2)Cc2ccccc2Cl)cc1	2%
O=C(Nc1ccon1)c1cc(Br)ccc1Cl	i
CCOC(=O)c1nc(Nc2ccc(OCC)cc2)sc1C	i
CCCCn1nnc(NC(=O)c2cccc(F)c2)n1	i
CC(=O)N(C)c1ccc(NC(=O)C(C(C)C)N2C(=O)c3ccccc3C2=O)cc1 (centres undefined)	i
COc1ccc(C(=O)Nc2ccc(C(=O)Nc3cccnc3)cc2)cc1	i
CCC1(C(=O)c2ccc(C)cc2)C(c2ccccc2)C1(C(=O)OC)C(=O)OC (centres undefined)	5%
CC(C)CNC(=O)c1cccc(NC(=O)CSc2ccc(Cl)cc2)c1	i
Cc1ccccc1NC(=S)N1CCN(C(=O)c2ccco2)CC1	i
CC(=O)N1c2ccccc2C(C)(c2ccccc2)CC1(C)C (centres undefined)	i
COc1ccccc1CC(=O)N(C(C)C)C(C)C	i
COc1ccc(C(=O)CSc2nnc(-c3cccnc3)n2-c2ccc(Br)cc2)cc1	2%
CC(C)C(=O)Nc1cccc(NC(=O)c2cccc(OCc3ccccc3)c2)c1	i
CC(C)Cc1ccc(S(=O)(=O)Nc2ccc(Br)cn2)cc1	i
O=C(CSc1nnc(NC(=O)c2ccc([N+](=O)[O-])cc2)s1)NC1CCCCC1	i
Cc1nc(NC(=O)Cc2ccc(Cl)cc2)ccc1Br	i
Cc1ccc(S(=O)(=O)CC(c2ccccc2)N2CCOCC2)cc1 (centres undefined)	i
Cc1cc(Br)c(S(=O)(=O)N2CCN(c3ccc(Cl)c(Cl)c3)CC2)cc1C	i
COC(=O)c1cc(NS(=O)(=O)c2ccc(Cl)cc2)ccc1Cl	i
COc1cccc(C(=O)Nc2sc3c(c2C(N)=O)CCCCC3)c1OC	3%
CC12CCC(C(=O)N(c3cccc(Cl)c3)C1=O)C2(C)C (centres undefined)	i
O=C(Nc1cc(Cl)ccc1C(=O)O)c1ccccc1Br	i
CC1CCCN(CCCCOc2cccc(Br)c2)C1 (centres undefined)	i
CN(C)S(=O)(=O)c1ccc(NC(=O)c2ccc(C(C)(C)C)cc2)cc1	2%
CC(=O)Oc1ccc(C)cc1-n1nc2ccccc2n1	i
Cc1ccc(OCCSc2nnc(-c3ccccc3)n2C)cc1	1%
O=C(CCSc1ccc([N+](=O)[O-])cc1Cl)N1CCCC1	0%
O=C(CSc1ccc(Br)cc1)Nc1ccccc1F	1.6µg/mL*
C#CCOc1ccc(Br)cc1CO	i
COc1ccccc1C1C2=C(CCCC2=O)Nc2nc(SCc3ccccc3F)[nH]c(=O)c21 (centres undefined)	i
Cn1c(SCC(=O)Nc2ccc(Cl)cc2Cl)nnc1-c1ccc(Cl)cc1	i
NS(=O)(=O)c1ccc(NC(=O)CCCOc2ccc(Cl)cc2Cl)cc1	i
CCOc1ccc(-c2cnc(=S)[nH]c2N)cc1	i
O=C1OC(c2ccc(F)cc2)=N/C1=C\c1ccc(OC(=O)c2ccccc2Cl)cc1	i
CCOc1ccc(NC(=O)Nc2cccc(Cl)c2C)cc1	i
COCc1cccc(NC(=O)CCc2ccccc2)c1	i
N#Cc1c(SCC(=O)NCc2ccc(Cl)c(Cl)c2)nc2c(c1C(F)(F)F)CCCC2	i
COc1ccc(-c2nc3ccccc3s2)cc1COc1ccc([N+](=O)[O-])cc1	i
C=CCc1ccccc1OCc1nc2ccccc2[nH]1	i
COc1ccc(F)cc1S(=O)(=O)n1nc(C)cc1C	i
CC(C)Cc1nnc(NC(=O)C2c3ccccc3Oc3ccccc32)s1	i
C=CCN(CC=C)C(=O)Cc1ccc(C)cc1	i
O=C(NCc1ccco1)c1ccc2c(c1)C(=O)c1ccccc1-2	1%
CN(C)Cn1c(O)c(N=NC(=O)c2ccccc2Cl)c2cc(Br)ccc21	i
O=C(Nc1ccccc1F)c1ccccc1-c1ccccc1	i
Cc1ccc(OCc2nnc(SCC(=O)Nc3ccc(C)c(Cl)c3)n2C)cc1	i
CN(C)CCOCCOc1ccc(F)cc1	i
O=C(Nc1nnc(SCC(=O)N2CCc3ccccc32)s1)c1ccccc1Cl	i
CC1(C(=O)NN2CCOCC2)CC1(Cl)Cl (centres undefined)	6%
CCc1ccccc1NC(=O)c1sc2ccccc2c1Cl	4%
CCOC(=O)c1ccc(NC(=O)CN2C(=O)c3cccc4cccc2c34)cc1	i
CCn1c(=O)c([N+](=O)[O-])c(O)c2ccccc21	18%
CCOC(=O)c1c(NC(=O)CCC(=O)O)sc2c1CCCCCC2	0%
O=C(Cn1cnc2scc(-c3ccc(Br)cc3)c2c1=O)Nc1ccccc1	19%
CCc1cc(=O)oc2cc(OC(C)=O)cc(OC(C)=O)c12	i
O=C1CC(N2CCN(c3ccccc3)CC2)C(=O)N1c1ccc2c(c1)OCCO2 (centres undefined)	i
CC(C)NS(=O)(=O)c1ccc(OCC(=O)N2CCOCC2)cc1	1%
COc1ccc(NCCNC(=O)c2ccc(Cl)cc2)c([N+](=O)[O-])c1	i

The results go on:
SMILES	Mtb H37Rv
CC(C)c1ccccc1NC(=O)CCSc1ccc(Cl)cc1	i
O=C(CSc1nc(-c2ccccc2)cc(=O)[nH]1)Nc1ccccc1	i
CC(=O)c1ccc(NC(=S)N2CCN(c3ccccn3)CC2)cc1	i
CCc1cc(I)ccc1NC(=S)NC(=O)c1cc2ccccc2o1	1%
COc1ccc(OC(C)C(=O)Nc2ccc(Cl)cc2C)cc1 (centres undefined)	0.62µg/mL*
COc1ccccc1NC(=O)C(=O)NCC1CCCCC1	i
O=C(Nc1ccccc1NS(=O)(=O)c1cccs1)NC1CCCCC1	i
COc1ccc(N=C2NC(=O)C(CC(=O)Nc3ccc(OC)cc3)S2)cc1 (centres undefined)	i
O=C(c1ccc(-c2ccccc2)cc1)N1CCOCC1	1%
COc1ccc(C(=O)Nc2ccc(Cl)cc2C(=O)c2ccccc2)cc1OC	i
COc1cc(-c2nnc(SCC(=O)c3ccccc3)n2-c2ccccc2)cc(OC)c1OC	i
O=C(c1ccccc1Cl)N1CCc2ccccc2C1	3%
Cc1cccc(N(CC(=O)Nc2cccc(C(F)(F)F)c2)S(=O)(=O)c2ccccc2)c1C	7%
CC(=O)Nc1ccc(C(=O)Nc2ccccc2Br)cc1	i
O/N=C/c1cc[n+](C(c2ccccc2)c2ccccc2)cc1	1%
N#Cc1ccccc1Sc1ccccc1C(=O)NCCOCc1ccccc1	i
COc1ccccc1S(=O)(=O)n1cc(Cc2ccccc2)c(N)n1	7%
CC(=O)c1ccc(NC(=O)c2cnn3c(C(F)(F)F)cc(-c4ccc(C)cc4)nc23)cc1	i
CCCN(CCC)S(=O)(=O)c1ccc(NC(=O)c2ccco2)cc1	i
O=S1(=O)NC(=NCCOc2ccccc2F)c2ccccc21	i
COCCNCCOc1ccc(C(C)(C)C)cc1C	i
CCS(=O)(=O)N1CCN(C2CCN(Cc3ccccc3)CC2)CC1	i
O=C(CN(c1cccc(Br)c1)S(=O)(=O)c1ccccc1)NC1CCCCCC1	i
Cc1ccc(SC(C)C(=O)N2CCC(C(N)=O)CC2)cc1 (centres undefined)	i
O=C(Nc1ccc2c(c1)OCO2)c1cccs1	i
COc1ccccc1C(=O)Nc1ccccc1C(=O)NC1CCCCC1	i

Given field by field: entries from further up
Cc1cccc(NC(=O)C(C)NS(=O)(=O)c2ccccc2)c1 (centres undefined)
  Mtb H37Rv = i
O=C(Nc1ccc2ccccc2c1)Oc1ccccc1
  Mtb H37Rv = i
CCS(=O)(=O)N1CCN(C2CCN(Cc3ccccc3)CC2)CC1
  Mtb H37Rv = i
O=C(CSc1nnc(-c2ccccc2)c(-c2ccccc2)n1)NC1CC2CCC1C2 (centres undefined)
  Mtb H37Rv = i

Screens deposited in PubChem by Southern Research Institute.
